Screening results deposited in PubChem by several laboratories.
Yeast UUG start = modulators of yeast start codon fidelity, primary screen, whole organism, S. cerevisiae, single point, plate reader | S. cerevisiae UUG-firefly luciferase reporter, luminescence/redox ratio | activity score, % at 18.7 µM | 350,000 tested, 0.13% active | AID 602363, 2012;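 active means replicate mean at a twofold rise or more, about +100% in these data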;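 further: firefly luciferase made from a UUG start codon reports start codon fidelity; reporter light over untreated wells divided by growth signal over untreated wells; some hits fall short of that in this replicate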
Rce1 inh = yeast Rce1p protease inhibitors, primary screen, biochemical, fluorescence, cell-free homogeneous | 290,000 tested, 0.27% active | yeast membranes, quenched prenylated peptide cleavage fluorescence | calls only;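 active means fall in fluorescence gain of 50% or more versus controls, with final raw signal at or below 3038400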;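 further: plate controls were neutral control wells for no effect and wells lacking membranes for full effect; tested at 10 µM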
HIV Env fusion = inhibitors of HIV-1 Env-driven cell-cell fusion, primary screen, HeLa-JRFL effector, CEM21 target cells, luciferase. inhibition, % at 12.3 µM. 360,000 tested, 1.1% active;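 active means mean replicate inhibition score of at least 50 and every replicate individually at or above 50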;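 further: 0% = plate neutral controls and 100% = maraviroc near 300 nM; one replicate is shown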
MT1-MMP act inh = blockers of MT1-MMP proenzyme processing, primary screen, HT1080 RFP-PRO-GFP cells, GFP/RFP fluorescence | GFP/RFP ratio fluorescence, overnight; percent of plate control window, DMSO zero | 360,000 tested, 0.061% active | GFP/RFP ratio change, % at 20 µM | AID 651647, 2012;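 active means GFP/RFP ratio change of at least 30% with cell ATP level not reduced by more than half and red fluorescence within 50% of control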; further: strong numbers were not always called active
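system = RFP-PRO-GFP reporter HT1080 cells | dosing = 20 µM single dose, 1% DMSO | timing = overnight cell settling, then overnight compound exposure, 37 °C, 5% CO2 | read-out basis = GFP/RFP fluorescence ratio | controls = DMSO and RFP-L50D-GFP cell wells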
eIF4H inh = human eIF4H binding inhibitors, primary screen, translation initiation inhibitor project, biochemical, uHTS, fluorescence polarization; inhibition, % at 35 µM; eIF4H fluorescence polarization binding assay; 290,000 tested, 0.94% active; Eukaryotic translation initiation factor 4H (Homo sapiens), Q15056;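 active means 50% or more with normal probe brightness, or confirmed in later tests; about a fifth of its hits are not listed in these tables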;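 further: calls also rest on retests at 20 µM and on dose response follow-up; 0% = protein and probe with vehicle and 100% = probe without protein; strong numbers were not always called active; many hits fall short of the cut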
CSC inhib = cancer stem cell viability inhibitors, primary screen, luminescence; cancer stem cell-like cells viability; inhibition, % at 7.5 µM; 300,000 tested, 1.1% active; AID 2717, 2010;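 active means mean at 75% or more and at least half the replicates too; tested in HMLE shEcad cells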;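 further: 0% = median of negative and 100% = median of positive control wells; the first replicate is given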
PABP FP inh = PABP poly(A) RNA binding inhibitors, primary screen, biochemical, fluorescence polarization, uHTS; Polyadenylate-binding protein 1 (Homo sapiens), P11940; inhibition, % at 35 µM; 290,000 tested, 1% active; AID 2014, 2009;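 active means 50% or more with normal probe brightness, or confirmed in later tests; about a fifth of its hits are not listed in these tables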;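 further: calls also rest on retests at 20 µM and on dose response follow-up; controls were probe without protein and protein plus probe with vehicle; some compounds called inactive have numbers as strong as hits; many hits fall short of the cut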
Target sequence (P11940 whole entry, looked up): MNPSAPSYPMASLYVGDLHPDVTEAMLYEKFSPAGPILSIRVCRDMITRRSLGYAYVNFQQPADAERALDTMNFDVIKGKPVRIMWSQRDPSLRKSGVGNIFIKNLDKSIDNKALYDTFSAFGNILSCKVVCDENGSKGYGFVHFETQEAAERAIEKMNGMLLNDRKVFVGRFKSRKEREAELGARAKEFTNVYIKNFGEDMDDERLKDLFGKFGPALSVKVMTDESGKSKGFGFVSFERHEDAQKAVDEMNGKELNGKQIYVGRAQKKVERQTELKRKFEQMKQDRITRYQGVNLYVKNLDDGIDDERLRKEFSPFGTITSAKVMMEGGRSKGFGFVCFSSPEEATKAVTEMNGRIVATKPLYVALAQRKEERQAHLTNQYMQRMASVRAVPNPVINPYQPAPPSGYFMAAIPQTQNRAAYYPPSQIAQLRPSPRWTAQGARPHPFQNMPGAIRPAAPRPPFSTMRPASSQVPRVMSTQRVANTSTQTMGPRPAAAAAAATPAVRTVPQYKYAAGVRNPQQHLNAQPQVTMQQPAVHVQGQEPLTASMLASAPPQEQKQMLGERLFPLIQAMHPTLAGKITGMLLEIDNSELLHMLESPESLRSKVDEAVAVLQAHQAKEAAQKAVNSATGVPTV
MT1-MMP act inh RFP = recorded beside MT1-MMP act inh, whose call it bears; RFP signal change, %; measured here: RFP expression control read;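 0 = vehicle wells; hits needed this value within 50% of zero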
* hit, by the source's call; i = inactive; nt = not tested or not shown. Not all compounds are listed; count on the stated rates, not on these rows.

Compound	Yeast UUG start	Rce1 inh	HIV Env fusion	MT1-MMP act inh	MT1-MMP act inh RFP	eIF4H inh	CSC inhib	PABP FP inh
O=C(NCC1CCCO1)c1ccc(CNS(=O)(=O)c2cccc(Cl)c2)cc1 (stereo not given)	-10	i	13	0	0	-8	0	7
CCN1CCN(C(C(=O)NC2CCCCC2)c2cc3ccccc3o2)CC1 (stereo not given)	-11	nt	1	3	0	nt	nt	nt
Fc1ccc2nc(N3CCCC3)sc2c1	-12	i	-34	1	-2	-8	-1	-4
COc1cccc(CCNC(=O)CCc2nnc(-c3cc(C)oc3C)o2)c1	-1	i	3	-1	5	-8	-6	2
CC1CN(C=O)CC(C)N1CCN1C(C)CN(C=O)CC1C (stereo not given)	-4	nt	1	1	3	nt	nt	nt
CCOc1ccc(C(=O)COC(C)=O)cc1	-8	i	nt	-1	2	3	-9	3
O=C(Nc1nc2ccc(Cl)cc2s1)c1ccco1	-20	i	-161	1	-1	4	5	-11
CCOC(=O)c1c(C)[nH]c(C(=O)COC(=O)CNC(=O)c2ccc(Br)cc2)c1C	nt	i	3	0	1	-16	-1	-32
CC(=O)C(Cl)C(=O)Nc1ccccc1 (stereo not given)	-16	nt	3	-3	1	-1	nt	1
O=C(c1ccco1)N1CCN=C1SCc1cccnc1	-20	i	nt	10	7	-5	-3	3
CCC(=O)Nc1cc2c(cc1C(C)=O)OCCO2	-10	i	nt	5	2	-2	7	7
O=C(Nc1ccc(Cl)c(Cl)c1)NC1CCS(=O)(=O)C1 (stereo not given)	-8	i	8	-1	0	14	0	-3

Reformatted with two lines to a compound: part of the list above
Second line of a record – Yeast UUG start	Rce1 inh	HIV Env fusion	MT1-MMP act inh	MT1-MMP act inh RFP	eIF4H inh	CSC inhib	PABP FP inh
CCC(=O)Nc1cc2c(cc1C(C)=O)OCCO2
    -10	i	nt	5	2	-2	7	7
O=C(Nc1nc2ccc(Cl)cc2s1)c1ccco1
    -20	i	-161	1	-1	4	5	-11
COc1cccc(CCNC(=O)CCc2nnc(-c3cc(C)oc3C)o2)c1
    -1	i	3	-1	5	-8	-6	2
CCOC(=O)c1c(C)[nH]c(C(=O)COC(=O)CNC(=O)c2ccc(Br)cc2)c1C
    nt	i	3	0	1	-16	-1	-32

Going on with the list.
Compound	Yeast UUG start	Rce1 inh	HIV Env fusion	MT1-MMP act inh	MT1-MMP act inh RFP	eIF4H inh	CSC inhib	PABP FP inh
CNc1cc(CSC)nc(SCc2ccc(Cl)c(Cl)c2)n1	nt	i	nt	-3	-3	-6	19	14
COCCCNC(=O)COc1ccc(Cl)c(C)c1	2	i	-26	3	2	-10	-17	6
O=C1C2N=NN(CC(=O)N3N=C(c4cccc5ccccc45)CC3c3ccccc3)C2C(=O)N1c1ccccc1 (stereo not given)	-17	i	nt	1	0	13	-9	-3
COc1ccc(NC(=O)C(c2ccccc2)c2ccccc2)c(OC)c1	nt	i	-13	0	-4	nt	-4	nt
Cc1ccc(-c2nc(N)n(C(=O)c3cccnc3)n2)cc1	-16	i	-18	4	7	-1	4	2
COc1ccc2c(c1)CCc1c(C(=O)Nc3c(C)n(C)n(-c4ccccc4)c3=O)noc1-2	1	i	17	3	0	-7	-1	-2
C=CCn1c(SCC(=O)Nc2ccc(C(=O)OCC)cc2)nnc1-c1sc(N)nc1C	-15	i	nt	-3	5	-4	19	10
COCc1cc(=O)n2c(-c3ccccc3OC)n[nH]c2n1	-14	i	-12	-3	2	4	0	38
O=C(N/N=C1\CCCc2c1[nH]c1ccc(Cl)cc21)c1ccncc1	-10	i	28	2	-7	nt	35	nt
CN(CC(=O)NCCc1ccccc1)S(=O)(=O)c1ccc(Br)s1	1	i	4	5	-4	25	3	5
C[C@H](NC(=O)C1CCN(S(=O)(=O)c2ccccc2)CC1)C(=O)NCc1cccc(Cl)c1	-9	i	3	5	3	-8	15	-5
O=C(c1ccccc1NS(=O)(=O)c1ccccc1[N+](=O)[O-])N1CCOCC1	-12	i	2	1	4	8	-11	16
COc1ccc(C(=O)NCCCc2ccccc2)cc1OC	3	i	-13	2	3	5	5	5
CC(NS(C)(=O)=O)C(c1cccs1)N1CCN(Cc2ccccc2)CC1 (stereo not given)	-11	i	0	2	5	-3	-8	-15
CN(c1ccc(-c2csc(NC(=O)C3CC(=O)N(Cc4ccco4)C3)n2)cc1)S(C)(=O)=O (stereo not given)	-6	nt	nt	10	-15	nt	-10	nt
COc1ccc(S(=O)(=O)NC(C)CCc2ccccc2)cc1 (stereo not given)	nt	i	0	-4	-2	1	6	-12
Cc1ccccc1/C(N)=N/OC(=O)/C=C/c1ccccc1	-11	i	-168	-2	-2	0	11	3
CCc1nn(C(C)C(=O)N2CCN(Cc3ccccc3)CC2)c(=O)c2cc3occc3n12 (stereo not given)	-22	i	nt	1	1	4	1	-5
Cc1ccc(S(=O)(=O)N2CCN(CCNC(=O)C(=O)Nc3ccc(F)cc3)CC2)cc1	-13	i	-3	4	-1	-7	-6	-4
Cc1cc(NC(=O)CSc2nnc(-c3ccccc3C)n2C)no1	-10	nt	1	-3	0	nt	-17	nt
O=c1c2ccccc2nc2n1CCN2Cc1ccc(Cl)cc1	-13	i	nt	9	-17	-4	-2	10
O=C(C1CC1)N1N=C(c2ccncc2)CC1(O)C(F)(F)F (stereo not given)	-13	i	8	-4	-1	-11	-6	-6
CCN(CC)CCSc1nnc2c3cc(F)ccc3n(Cc3ccccc3)c2n1	nt	i	-3	-4	-2	-11	44	-4
O=C(NCc1cccnc1)Nc1cccc(NC(=O)NCc2cccnc2)c1	-28	i	-15	-3	7	-8	-5	12
N#Cc1nc(-c2ccccc2F)oc1NCCc1ccccn1	-12	i	nt	4	-2	-8	-7	-3
COC(=O)CSc1nc2sc3c(c2c(=O)n1C1CCCCC1)CCN(C)C3	nt	i	nt	nt	nt	26	25	14
Cc1ccc(C)c(S(=O)(=O)N2CCCC2CNC(=O)C(=O)NCC2CCCO2)c1 (stereo not given)	nt	i	40	1	0	nt	-2	nt
CC(Oc1ccccc1F)C(=O)NNC(=O)CCS(=O)(=O)c1ccccc1Cl (stereo not given)	-8	i	-18	5	5	nt	-7	nt
Cc1ccc(-n2c(C)cc(/C=C3\NC(=O)NC3=O)c2C)c(C)c1	-11	i	-6	3	4	9	nt	-3
Nc1cccc2c1C(=O)N(C(=O)c1cccc(S(=O)(=O)N3CCCCCC3)c1)C2=O	-6	i	-29	-6	0	7	-6	15
CCOc1ccc2nc(C)cc(C(=O)O)c2c1	-24	i	nt	6	4	-2	-1	-6
CCN(C(=O)CSc1nnc(-c2ccccc2Cl)n1C1CCCC1)C1CCS(=O)(=O)C1 (stereo not given)	-6	i	-185	1	7	3	nt	3
Nc1nnnn1/N=C/c1ccc(Br)cc1	-8	i	-400	3	1	-7	nt	4
Cc1cccc(C)c1OCC(O)CNC(C)C (stereo not given)	-3	i	nt	4	2	-2	1	-3
CCNc1nc(NCC)nc(-n2nc(C)cc2C)n1	-31	i	nt	4	3	-5	-8	-5
OCCN(Cc1ccccc1)CC1CCCCC1	-25	i	-14	-4	-4	-6	-6	8
COc1ccc(CC(N)c2csc(NC(=O)NCCc3ccc(OC)c(OC)c3)n2)cc1 (stereo not given)	-14	nt	36	-5	0	nt	nt	nt
O=C(COC(=O)COc1ccccc1[N+](=O)[O-])NC1CCCC1	-1	i	11	-1	4	-4	1	4
CSc1nc2nc(-c3ccccc3)cc(C(F)(F)F)n2n1	-9	nt	nt	-4	-2	-2	nt	3
Cc1c(OCC(=O)NCCCN2CCOCC2)ccc2c(-c3ccccc3)cc(=O)oc12	-20	i	10	-1	5	-18	20	-2
Cc1ccc(C)c(S(=O)(=O)N2CCC3(CC2)OCCN3S(=O)(=O)c2cccs2)c1	-5	i	7	1	-8	nt	1	nt
CCOC(=O)C(/C(C)=N/NC(=O)C1CC1c1ccccc1)C(C)C (stereo not given)	nt	i	21	-4	5	14	-7	10
Cc1cc(C)cc(NC(=O)c2ccc(S(=O)(=O)C(F)F)cc2)c1	nt	i	-12	-3	3	-22	-7	-5
CCOC(=O)c1sc2nc3c(cc2c1N)C(=O)CC(C)(C)C3	nt	nt	7	-3	-1	4	14	-6
Cc1ccc(CC2C(=O)N(c3ccc(C)cc3)C(=O)C2C)cc1 (stereo not given)	16	i	1	2	-3	5	-10	-78
CCOc1ccccc1/C=N/Nc1cc(C)nc2ccc(C)cc12	2	i	7	3	0	-4	-8	-4
C/C(=N\NC(=O)c1ccc(OC2CCCC2)cc1)c1ccc(C)s1	-24	i	nt	-4	-1	-6	-5	-2
COc1ccc(NC(=O)CSc2nnnn2Cc2ccccc2)cc1	nt	i	18	2	0	-3	19	-5
Cc1cccc(C)c1NC(=O)c1ccc(-c2ccc(Cl)cc2Cl)o1	-12	i	nt	-25	-21	-4	53	-5
COc1cccc(NC(=O)CN(C)C(=O)COc2cc(C)ccc2Cl)c1	nt	i	i	5	-1	nt	-2	nt
COc1ccc(COC(=O)N/N=C(\C)CC(=O)Nc2c(C)cc(C)cc2C)cc1	-15	i	-147	-8	-3	-3	-8	12
Cc1ccc(CNC(=O)c2ccc3c(c2)NC(=O)CS3)cc1	2	i	2	0	3	-8	-10	-10
COc1cccc(CN2CC(C(=O)NCCn3ccc(C)n3)CCC2=O)c1 (stereo not given)	-2	i	-7	3	5	-12	-5	7
CCOc1cccc(-c2nnc3sc(-c4ccco4)nn23)c1	-17	i	-286	6	2	1	7	5
CC(C)(C)OC(=O)NCCc1nnc(SCc2ccccc2)o1	-6	i	3	3	-1	-1	-8	-7
O=C(NC1CCCCC1)c1cc(S(=O)(=O)N2CCOCC2)ccc1Cl	-6	i	-3	-4	-3	1	17	4
Cc1ncc([N+](=O)[O-])n1CC(O)CCl (stereo not given)	-18	i	22	1	1	-7	-14	9
Cc1ccccc1C(=O)Nc1scc(-c2ccc(Br)cc2)c1C(=O)O	-17	i	2	-4	-9	nt	27	nt
COc1cccc(CNC(=O)CN(c2cc(C)cc(C)c2)S(=O)(=O)c2c(C)noc2C)c1	-8	i	-43	-2	4	-4	-3	14
CCc1cccc(C)c1NC(=S)N(CCN(C)C)Cc1cccs1	nt	i	-6	-1	6	-5	21	2

Following part:
Compound	Yeast UUG start	Rce1 inh	HIV Env fusion	MT1-MMP act inh	MT1-MMP act inh RFP	eIF4H inh	CSC inhib	PABP FP inh
COc1cc(/C=N\NC(=O)c2ccc(-c3ccccc3)cc2)cc(OC)c1O	-19	i	nt	8	5	12	-27	13
CCCOc1ccc(CC(=O)NCC2(c3ccccc3)CCOCC2)cc1OC	-14	i	-20	5	4	1	0	-5
Cc1nnc(N2CCC(C(=O)N3CCCCC3)CC2)c2nn(-c3ccc(Cl)cc3)c(C)c12	-15	i	nt	0	-2	nt	-11	nt
COC(=O)c1ccccc1NC(=O)CN1C(=O)c2ccccc2S1(=O)=O	-7	i	nt	-1	1	-5	7	-6
CC(C)(C)c1ccccc1OCCCCCNCCO	-8	i	-25	-1	0	-1	-6	25
Cc1ccc(S(=O)(=O)N2CCOCC2)cc1C(=O)Nc1nc(-c2cccnc2)cs1	-5	i	nt	-6	-6	-9	-4	-3
CC(C)CC(C(=O)Nc1cccc(O)c1)N1C(=O)c2ccccc2C1=O (stereo not given)	1	i	6	4	6	-3	-12	8
CCCn1c(SCC(=O)Nc2ccccc2C(=O)NC2CC2)n[nH]c1=O	-5	nt	nt	-3	-1	nt	-3	nt
